Screening results: PubChem BioAssay, National Center for Advancing Translational Sciences (NCATS)
Sfp inh: qHTS Assay for Inhibitors of Bacillus subtilis Sfp phosphopantetheinyl transferase (PPTase) | Potency, µM, without a hit: max response, negative = inhibition, usual class: inhibitors | 4'-phosphopantetheinyl transferase ffp (Bacillus subtilis), Q9F4F7 | 310,000 tested, 3.5% active | Biochemical Sfp PPTase activity, qHTS; active means well fitted inhibition curve with a large enough effect; inconclusive means small, poorly fitted or top-dose-only effect, or another doubt; inactive means no such curve, though single readings can be large or run the other way;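 further: the enzyme is Sfp with the accession as filed and its product quenches rhodamine fluorescence; potency means the concentration at half of the fitted maximal effect; 0% = enzyme reaction without inhibitor and -100% = no enzyme wells; top concentration of the series not given in the record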
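After 15 min at room temperature with compound, 15 nM Sfp received 5 uM rhodamine-CoA plus 12.5 uM BHQ-2-ybbR (50 mM Hepes pH 7.6, 10 mM MgCl2). Rate came from the fluorescence difference over 30 min, ex 525/em 598 nm.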
TRPV1 PAM: HTS Assay for Compounds that Act as Potentiators of the Vanilloid Receptor 1; Transient receptor potential cation channel subfamily V member 1 (Homo sapiens), Q8NER1; TRPV1-expressing cells, Fluo-8 calcium influx, capsaicin EC20 potentiation; host cell line not named in the record; control for the full effect not named in the record; potentiation, % at 8.33 µM; 320,000 tested, 0.02% active; AID 540277, 2011; active means potentiation above 80%; inconclusive means 30% to 80%; inactive means below 30%; further: 0% is about no effect
Target sequence (Q8NER1 whole entry, looked up): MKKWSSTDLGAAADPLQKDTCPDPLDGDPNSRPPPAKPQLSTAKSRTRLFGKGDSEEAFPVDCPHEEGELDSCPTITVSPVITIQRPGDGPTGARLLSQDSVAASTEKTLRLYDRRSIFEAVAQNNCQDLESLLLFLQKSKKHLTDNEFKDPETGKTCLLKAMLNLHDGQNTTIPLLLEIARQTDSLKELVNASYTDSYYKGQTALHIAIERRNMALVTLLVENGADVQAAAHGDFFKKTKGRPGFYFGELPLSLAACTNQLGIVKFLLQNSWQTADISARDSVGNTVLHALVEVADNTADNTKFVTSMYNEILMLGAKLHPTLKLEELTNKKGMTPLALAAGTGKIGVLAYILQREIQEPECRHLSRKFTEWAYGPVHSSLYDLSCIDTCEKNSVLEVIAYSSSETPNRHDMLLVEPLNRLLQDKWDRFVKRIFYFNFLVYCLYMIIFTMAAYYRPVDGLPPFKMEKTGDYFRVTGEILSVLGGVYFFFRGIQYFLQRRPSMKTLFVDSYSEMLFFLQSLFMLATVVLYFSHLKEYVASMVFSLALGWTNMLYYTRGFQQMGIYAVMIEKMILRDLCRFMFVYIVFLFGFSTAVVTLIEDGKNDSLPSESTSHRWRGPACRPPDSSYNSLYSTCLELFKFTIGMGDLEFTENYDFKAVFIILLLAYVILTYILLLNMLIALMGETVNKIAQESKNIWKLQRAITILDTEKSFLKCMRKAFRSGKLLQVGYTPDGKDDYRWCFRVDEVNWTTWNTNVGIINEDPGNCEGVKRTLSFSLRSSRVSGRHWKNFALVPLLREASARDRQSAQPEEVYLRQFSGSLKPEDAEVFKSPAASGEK
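Cells expressing TRPV1 were dye-loaded with Fluo-8 and read kinetically: 10 s baseline, 3 min after compound (agonist portion), then 2 min after EC20 capsaicin (allosteric enhancer portion). Calcium-bound dye fluorescence at 480/520 nm.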
PINK1 modulator: A Quantitative High throughput Screen to Identify Chemical Modulators of PINK1 Expression | PINK1 immunofluorescence, high-content cytometry, 24 h | AID 624263, 2012 | 410,000 tested, 0.2% active | Potency, µM (highest dose often 76.6 µM), without a hit: top-dose activation (PINK1 increase), most hits filed as activators; active = well fitted activation curve with a large enough effect; inconclusive = small, poorly fitted or top-dose-only effect; inactive = flat fitted curve, though single readings scatter; cell line not stated here;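 further: potency means the concentration at half of the fitted maximal effect; % of control where 0% means no effect; nearly all actives have a fitted effect of over 65% in size; a mitochondrial uncoupler was the plate control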
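Readout is PINK1 immunofluorescence, quantified alongside mitochondrial, cell and nuclear markers by laser-scanning microplate cytometry. Cells from a stable line were exposed to compound titrations (5 concentrations) for 24 hours, with CCCP controls.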
TRPML1 blocker: qHTS for Inhibitors of the Human Mucolipin Transient Receptor Potential 1 (TRPML1). activity change, negative = inhibition, % (test concentration not listed). 390,000 tested, 0.02% active. AID 624415, 2012. TRPML1-inducible cells, Ca2+ dye fluorescence, FDSS; hits give low values; inhibition of EC80 agonist-evoked calcium signal; in the data active means activity change below about -50%; inconclusive means about -30% to -50%; inactive means above about -30%;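 further: stimulus is agonist 54-4 at its EC80 concentration; on the % scale 0 is the no-effect control and ±100 the full control effect; compound concentration not given in the record; the text of the record puts the active cut at -80%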
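Tet-induced TRPML1-DL cells loaded with Ca8 no-wash calcium dye were read kinetically on FDSS. Compound addition was followed by EC80 agonist 54-4 (4 uM final); inhibition was read over 110 s.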
Menin MLL FP FL: qHTS Assay for Inhibitors Targeting the Menin-MLL Interaction in MLL Related Leukemias: Competition With Fluorescein Labeled MLL-derived Peptide | FP activity change, % at 61.4 µM | AID 1766, 2009 | Fluorescence polarization, fluorescein-MLL peptide displacement from menin | 290,000 tested, under 10 active; inconclusive = falling polarisation curve, or a change in total fluorescence; inactive = total fluorescence flat and polarisation flat or rising; no compound was filed as active; the % refers to the polarisation; negative = inhibition;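 further: % of control where 0% means no effect; inhibitors lower the polarisation; unlabelled MLL peptide was the positive control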
TRPML1 ag: qHTS for Agonists of the Human Mucolipin Transient Receptor Potential 1 (TRPML1) | activation, % (test concentration not listed) | AID 624414, 2012 | TRPML1-expressing cells, Ca2+ dye fluorescence, FDSS; host cell line not named in the record; reference of the full effect not given here | 410,000 tested, 0.12% active | Mucolipin-1 (Homo sapiens), Q9GZU1; in the data active = activation above about 50%; inconclusive = about 30% to 50%; inactive = below about 30%; further: 0% is about no effect; the text of the record puts the active cut at 80%
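Calcium fluorescence on an FDSS kinetic reader gave the read-out. Tet-induced TRPML1-DL cells were plated overnight, dye-loaded (Ca8 with quencher, 45-90 min, room temperature, dark), then read 110 s after compound addition, and again 110 s after 4uM final 54-4 (EC80).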
ClpP mod: qHTS Assay for Activators of ClpP; purified B. subtilis ClpP, FRET peptide cleavage, 20 min; 340,000 tested, 1.9% active; Potency, µM (top dose mostly 57.5 µM), for the others: at the top dose activity change, negative = active; AID 651965, 2013; active = well fitted falling curve with a large enough effect; inconclusive = small, poorly fitted or top-dose-only effect; inactive = no such curve, though single readings can be large or run the other way; further: potency means the concentration at half of the fitted maximal effect; the source files actives as falling curves though it sought activators and does not explain the sign; nearly all actives have a fitted effect of over 65% in size; many hits overshoot -100%
Target sequence (P80244 whole entry, looked up): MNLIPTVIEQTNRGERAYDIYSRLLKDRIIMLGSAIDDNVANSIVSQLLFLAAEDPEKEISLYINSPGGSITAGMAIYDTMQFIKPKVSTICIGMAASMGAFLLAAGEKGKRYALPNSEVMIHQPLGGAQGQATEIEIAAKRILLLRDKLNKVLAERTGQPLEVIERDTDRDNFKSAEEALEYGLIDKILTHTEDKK
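ClpP 10 microg/mL final, pH 8 Tris/KCl buffer with BSA, glycerol, Tween-20; compound pinned in; FRET-FV substrate; RT 20 min; Ex320/Em430; ΔFRET vs ADEP 5.8 microM, DMSO, no enzyme.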
Active calls of the source: *; ? = inconclusive; nt = no result given; & = joins results of further samples; [ ] = another dose, or the depositor's remark.

nr	SMILES	Sfp inh	TRPV1 PAM	PINK1 modulator	TRPML1 blocker
1	CC1CCCCN1Cc1c(O)ccc2c(=O)c(-c3ccc(Cl)cc3)c(C(F)(F)F)oc12 (centres undefined)	nt	nt	-0.8%	-11
2	CCCCn1nc(C(=O)N(C)Cc2nc3ccccc3c(=O)[nH]2)c2ccccc2c1=O	nt	nt	0.8%	17
3	O=C(C[n+]1ccc2ccccc2c1)c1ccccc1	13%	-4	0.0%	33
4	COc1cc(/C=C/c2[nH]c(=O)[nH]c(=O)c2[N+](=O)[O-])ccc1OCCC(C)C	5%	10	-1.3%	-17
5	CCN(CC)S(=O)(=O)c1ccc(C(=O)Nc2ccc(Cc3ccncc3)cc2)cc1	25%	2	-0.5%	-2
6	Cc1cc(C)c(Cn2c(=O)n(CCCC(=O)NCc3ccco3)c(=O)c3sccc32)c(C)c1	?	22	4.4%	-5
7	CCOC(=O)C1=C(C)NC(=O)NC1c1cn(-c2ccccc2)nc1-c1cccs1 (centres undefined)	12%	-26	-0.1%[38.3 µM]	0
8	CCOCCCNS(=O)(=O)c1ccc(NC(=O)c2ccc(OC)c([N+](=O)[O-])c2)cc1	17%	4	3.9%	6

nr	Menin MLL FP FL	TRPML1 ag	ClpP mod
1	nt	1.9	-1.6%
2	nt	-0.4	-0.9%
3	3.2	1.3	nt
4	?	1.3	nt
5	-1.5	2.0	nt
6	3.3	0.9	0.3%
7	3.5	-0.4	5.4%
8	-1.0	1.6	nt

Next structures follow:
nr	SMILES	Sfp inh	TRPV1 PAM	PINK1 modulator	TRPML1 blocker
9	O=C(CCc1nc(-c2cccs2)no1)Nc1ccc([N+](=O)[O-])cc1	nt	nt	-1.2%	37
10	O=C(c1cc(-c2ccccc2)n[nH]1)N1CCN(S(=O)(=O)c2ccccc2)CC1	3%	14	-2.6%	20
11	Cc1ccc(SCCN2CCN(CCc3ccccc3)CCC2=O)cc1	6%&15%	-18	1.0%	3&36
12	c1ccc(Cc2nn[nH]n2)cc1	-1%	-6	5.1%	6
13	CCc1c(C(=O)Nc2cc(C)cc(C)c2)[nH]c(C)c1C(C)=O	9%	-13	0.9%	3
14	NC(=O)COc1ccc(/C=N\NC(=O)CC(=O)NCCc2ccccc2)cc1	12%	2	0.2%	-6
15	O=C(CC1N=C2c3ccccc3N=C(SCc3ccc(Cl)cc3)N2C1=O)NCc1cccs1 (centres undefined)	nt	nt	1.0%	-25
16	O=C(O)CNC(=O)C(c1ccccc1)c1ccccc1	10%	2	0.5%	-9

nr	Menin MLL FP FL	TRPML1 ag	ClpP mod
9	nt	1.7	-0.4%
10	2.4	1.8	1.9%
11	1.5&1.9	0.9&0.6	-2.4%
12	4.3	-0.2	0.3%
13	0.7	2.2	0.6%
14	-0.5	-0.5	-0.3%
15	nt	-0.6	0.4%
16	-0.7	0.2	nt

Additional results follow:
nr	SMILES	Sfp inh	TRPV1 PAM	PINK1 modulator	TRPML1 blocker
17	COc1ccc(-n2cc(C(=O)NCc3cccc(OC)c3)c3ccccc3c2=O)cc1	nt	nt	-0.6%	-28
18	COc1ccc(/C=N/NC(=O)CCSc2nc3ccccc3s2)cc1OC	-3%	25	1.4%	-14
19	O=C(CCN1CCOCC1)Nc1cc(C(=O)Nc2ccccc2F)ccc1N1CC2CC(C1)c1cccc(=O)n1C2 (centres undefined)	6%	29	0.8%	-1
20	NC(=O)C1(N2CCCCC2)CCN(C2CC(=O)N(Cc3ccc(N4CCCC4=O)cc3)C2=O)CC1 (centres undefined)	10%	4	10%[38.3 µM]	12
21	Cc1ccc(S(=O)(=O)N(C)c2ccc(OC(=O)c3cccs3)cc2)cc1C	nt	-2	-0.7%	12
22	COc1ccc(CNC(=O)c2ccc3nccnc3c2)cc1	6%	0	6.3%[38.3 µM]	9
23	Cc1cccc(N(CC(=O)N/N=C/c2cc([N+](=O)[O-])ccc2Cl)S(C)(=O)=O)c1C	6%	-18	-0.5%	45
24	COc1ccc(/C(C)=N/NC(=O)CNC(=O)CCc2ccccc2)c(OC)c1	8%	-1	4.8%	25

nr	Menin MLL FP FL	TRPML1 ag	ClpP mod
17	nt	0.1	12%
18	2.1	2.1	-4.5%
19	1.6	-0.2	-5.3%
20	0.6	0.1	-1.4%
21	nt	0.5	-1.9%
22	-2.9	3.6	0.1%
23	3.3	1.1	-0.9%
24	-2.6	-0.2	1.2%

Remaining list, next part:
nr	SMILES	Sfp inh	TRPV1 PAM	PINK1 modulator	TRPML1 blocker
25	CC1CN(CCc2ccccc2)c2nc3c(c(=O)n(C)c(=O)n3C)n2C1 (centres undefined)	7%	-16	2.2%	-8
26	c1cnc(N2CCSCC2)nc1	21%	27	-0.8%[38.3 µM]	-22
27	CC1(Oc2cccc(F)c2)CCN(Cc2csc3ccccc23)C1 (centres undefined)	nt	nt	12%	nt
28	O=S(=O)(NCC1CCCO1)c1cnc(Cl)c(Cl)c1 (centres undefined)	-18%	5	-0.5%	10
29	N=c1ncn(CC(O)CN2CCOCC2)c2nc(N3CCOCC3)[nH]c12 (centres undefined)	20%	0	1.6%[38.3 µM]	3
30	COc1ccc([N+](=O)[O-])cc1NC(=O)CSc1ccc2ccccc2c1	3%	20	1.7%	10
31	Cc1ccccc1CNC(=O)c1ccc(CSc2nc3cccnc3n2Cc2ccccc2)cc1	nt	nt	2.0%	15
32	COCCNc1nc(Oc2cccc(NC(C)=O)c2)c2sc(-c3ccccc3)cc2n1	nt	nt	2.7%	nt

nr	Menin MLL FP FL	TRPML1 ag	ClpP mod
25	nt	2.1	0.8%
26	0.2	0.5	-1.7%
27	nt	-0.2	-1.3%
28	-1.2	-0.1	-2.4%
29	2.4	0.1	0.8%
30	8.3	2.6	nt
31	nt	0.7	4.5%
32	nt	2.0	?

(listing goes on)
nr	SMILES	Sfp inh	TRPV1 PAM	PINK1 modulator	TRPML1 blocker
33	CCOC(=O)c1cn(CC)c2cc(N3CCN(C)CC3)c(F)cc2c1=O	14%	-5	-0.9%	3
34	Cn1nc(C(=O)OCC(=O)Nc2cccc(S(=O)(=O)N3CCCC3)c2)c2ccccc2c1=O	12%	-17	0.6%	24
35	CCC(Oc1ccc2ccccc2c1)C(=O)O (centres undefined)	21%	4	2.7%	-6
36	O=C(O)c1cccc(OCCN2CCCC2=O)c1	-1%	-8	-0.2%	2
37	CN(C1CCCCC1)S(=O)(=O)c1ccccc1	4%	7	5.9%[38.3 µM]	8
38	O=C1CC2c3ccccc3C1C1C(=O)N(CCO)C(=O)C21 (centres undefined)	17%	18	-1.3%	15
39	CC1C(=O)N2CCCc3cc(NS(=O)(=O)c4ccc([N+](=O)[O-])cc4)cc1c32 (centres undefined)	nt	-5	-1.9%	24
40	CCN(C(=O)Nc1cccc(Cl)c1)c1ccccc1	9%	8	-0.6%	-19

nr	Menin MLL FP FL	TRPML1 ag	ClpP mod
33	0.6	-0.6	4.2%
34	-3.4	1.8	-3.1%
35	0.5	-0.7	-15%
36	-8.4	0.6	0.9%
37	5.1	0.1	-1.9%
38	0.5	0.7	nt
39	nt	0.4	-3.2%
40	-2.9	0.5	-1.3%

Compound profiles, from the list above:
COCCNc1nc(Oc2cccc(NC(C)=O)c2)c2sc(-c3ccccc3)cc2n1 in the list: Sfp inh = nt; TRPV1 PAM = nt; PINK1 modulator = 2.7%; TRPML1 blocker = nt; Menin MLL FP FL = nt; TRPML1 ag = 2.0; ClpP mod = ?
Cc1cccc(N(CC(=O)N/N=C/c2cc([N+](=O)[O-])ccc2Cl)S(C)(=O)=O)c1C in the list: Sfp inh = 6%; TRPV1 PAM = -18; PINK1 modulator = -0.5%; TRPML1 blocker = 45; Menin MLL FP FL = 3.3; TRPML1 ag = 1.1; ClpP mod = -0.9%

Some entries already given, reduced to Menin MLL FP FL, PINK1 modulator and Sfp inh.
#	SMILES	Menin MLL FP FL	PINK1 modulator	Sfp inh
37	CN(C1CCCCC1)S(=O)(=O)c1ccccc1	5.1	5.9%[38.3 µM]	4%
36	O=C(O)c1cccc(OCCN2CCCC2=O)c1	-8.4	-0.2%	-1%

Further entries.
nr	SMILES	Sfp inh	TRPV1 PAM	PINK1 modulator	TRPML1 blocker
41	COc1ccc(C(=O)C2CCCN(C(=O)C3CCOCC3)C2)cc1OC (centres undefined)	10%	-1	0.6%	-11
42	CCOc1ccc(OCCSc2nc(N)cc(=O)[nH]2)cc1	4%	28	0.3%	nt
43	CCc1nc(SCC(=O)c2ccc(Cl)s2)c2oc3ccccc3c2n1	-58%	20	3.0%[38.3 µM]	75
44	COc1ccc(-c2[nH]c(-c3ccc(F)cc3)nc2SCC(=O)NCc2ccco2)cc1OC	-11%	nt	4.2%	0
45	c1cncc(-c2nnc3sc(-c4ccco4)nn23)c1	2%	1	-3.6%[38.3 µM]	-22
46	Cc1ccc2c(c1)C(=O)C(=O)N2CC1COc2ccccc2O1 (centres undefined)	-1%	5	-1.0%	-3
47	Cc1cccc(Nc2nnc(SCC(=O)Nc3ccccc3[N+](=O)[O-])s2)c1C	7%	-1	1.9%	-6
48	C=CCOC(=O)C(=O)/C=C/c1coc2ccccc2c1=O	45µM*	1	2.1%	23
49	CCOC(=S)N/C(=N\S(=O)(=O)c1ccc(C)cc1)c1ccccc1	22µM*	-12	28%[38.3 µM]	-6
50	O=C(Nc1c(S(=O)(=O)c2ccccc2)csc1Br)c1ccccc1Cl	10%	-9	-0.1%	2
51	O=C(Cn1cc2c(n1)CCCCC2)N1CCCCC1	16%	9	1.3%	-11

nr	Menin MLL FP FL	TRPML1 ag	ClpP mod
41	-0.2	0.2	-3.4%
42	3.7	nt	-2.2%
43	?	2.5	-0.9%
44	2.6	-0.2	?
45	0.6	0.3	?
46	0.3	1.2	nt
47	6.9	4.3	0.6%
48	?	-0.1	4.8%
49	1.7	0.0	-0.4%
50	0.5	-0.7	-1.8%
51	-0.5	0.0	0.9%
